Screening results (PubChem)
UCH37 inh = human UCH37 deubiquitinating enzyme inhibition; inhibition, % (concentration not given with the values); Q9Y5K5; purified proteasome/UCH37, Ub-AMC cleavage fluorescence; actives 0.33% (n = 330,000);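 active = mean of two replicates above 20%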;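 also: 0% = compound-free wells with enzyme and 100% = wells lacking proteasome; stock transfer was 100 nL into about 20 µL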
Target sequence (Q9Y5K5 whole entry, looked up): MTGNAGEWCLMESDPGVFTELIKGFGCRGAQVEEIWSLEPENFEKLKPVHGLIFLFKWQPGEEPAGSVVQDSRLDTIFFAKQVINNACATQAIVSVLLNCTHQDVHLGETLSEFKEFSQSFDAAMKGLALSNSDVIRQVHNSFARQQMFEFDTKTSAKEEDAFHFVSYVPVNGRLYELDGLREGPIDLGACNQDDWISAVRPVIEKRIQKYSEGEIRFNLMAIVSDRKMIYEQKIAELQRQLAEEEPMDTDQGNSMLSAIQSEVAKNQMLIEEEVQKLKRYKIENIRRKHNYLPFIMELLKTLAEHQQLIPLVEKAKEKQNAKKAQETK
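Test system – human UCH37 enzyme supplied as purified proteasome complex · Incubation – 30 min preincubation with enzyme, 25 min cleavage at room temperature · Detection – AMC fluorescence from Ub-AMC cleavage, excitation 355 nm, emission 460 nm · Benchmarks – no-proteasome wells (full inhibition) and compound-free wells (no inhibition)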
Bfl-1 A1 inh = inhibitors of the anti-apoptotic protein A1, read as caspase activation | MEF A1-2A-BIM cells, Caspase-Glo 3/7 luminescence, 3 h; percent of clofoctol response, vehicle zero | caspase activation, % (concentration not given with the values) | actives 0.066% (n = 330,000) | AID 2462;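 active = over half of replicate activation scores above 10%, or exactly half above 10 with the replicate mean above 10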;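 also: wells of about 30 µL received 50 nL stock; many hits fall short of the cut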
Ecoli rRNA inh = selective bacterial rRNA inhibition in E. coli. E. coli WT GFP vs humanized-ribosome RFP mutants, fluorescence, 24 h; hits give low values; DMSO median 0, no signal -100. GFP signal change (wild-type ribosome), % (no concentration beside the values). actives 1.6% (n = 350,000). AID 720706;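 active = significant combined selectivity score with lowered wild-type GFP, culture density cut under 30%, mutant RFP and density less affected; inactive = any of these conditions unmet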; also: one replicate is shown; some compounds called inactive have numbers as strong as hits
AF4-AF9 inh = MLL-AF4/AF9 protein interaction inhibition | P42568 | AlphaScreen, biotin-AF4 peptide binding to FLAG-AF9 | inhibition, % at 10 µM | actives 0.47% (n = 350,000);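 active = every replicate reaching a set inhibition limit, whatever the replicate mean, cut at about 25% in these data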;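 also: 0% = plate neutral control median and 100% = total signal loss; the record names both 10 and 1 µM as test concentration; the first replicate is given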
Target sequence (P42568 whole entry, looked up): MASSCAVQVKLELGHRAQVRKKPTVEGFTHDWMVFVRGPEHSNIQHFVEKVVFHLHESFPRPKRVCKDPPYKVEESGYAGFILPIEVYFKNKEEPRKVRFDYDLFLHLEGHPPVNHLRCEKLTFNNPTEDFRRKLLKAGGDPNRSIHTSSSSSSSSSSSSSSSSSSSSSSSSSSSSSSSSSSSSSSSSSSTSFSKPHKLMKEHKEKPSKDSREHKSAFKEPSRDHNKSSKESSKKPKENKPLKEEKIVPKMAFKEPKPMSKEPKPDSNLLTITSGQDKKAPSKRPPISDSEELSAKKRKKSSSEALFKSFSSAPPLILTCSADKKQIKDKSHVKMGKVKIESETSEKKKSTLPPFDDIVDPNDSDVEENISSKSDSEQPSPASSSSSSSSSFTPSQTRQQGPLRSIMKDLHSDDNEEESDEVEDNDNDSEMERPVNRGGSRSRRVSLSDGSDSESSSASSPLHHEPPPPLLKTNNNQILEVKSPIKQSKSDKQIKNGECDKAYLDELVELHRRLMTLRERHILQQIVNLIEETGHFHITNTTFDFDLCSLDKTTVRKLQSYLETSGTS
FGF22 binding = binders of recombinant human FGF22 by thermal shift; Q9HCT0; SYPRO orange fluorescence; percent of sucrose octasulfate shift, DMSO zero; calls only at 9.99 µM; actives 1.5% (n = 340,000); AID 651658;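 active = melting point raised past a set limit in the mean and every replicate; three in four hits are not shown here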
Target sequence (Q9HCT0 whole entry, looked up): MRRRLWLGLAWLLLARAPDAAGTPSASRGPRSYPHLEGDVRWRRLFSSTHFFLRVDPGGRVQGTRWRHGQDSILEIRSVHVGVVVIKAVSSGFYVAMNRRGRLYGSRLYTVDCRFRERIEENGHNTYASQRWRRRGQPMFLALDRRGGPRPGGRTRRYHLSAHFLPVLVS
Ecoli growth = E. coli growth inhibition; OD600 absorbance (concentration not given with the values); Escherichia coli growth, OD600, 23 h; hits give low values; AID 1053175; actives 0.21% (n = 330,000);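 active = OD600 absorbance below the run mean of sample wells minus 3.6 SD, in any replicate, cut at about 0.56 in these data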;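 also: stock transfer was 300 nL into about 60 µL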
T cruzi repl = blocks replication of Trypanosoma cruzi | T. cruzi beta-gal in NIH3T3, luminescence, 90 h | inhibition, % (no concentration beside the values) | actives 1.4% (n = 300,000) | AID 1885;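 active = mean inhibition across valid replicates above about 55%, limit read from the data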;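 also: signal also drops with host cell toxicity which is not excluded here; 0% = plate median of DMSO wells and 100% = zero luminescence signal; higher percent means less beta-gal luminescence so fewer parasites; stock transfer was 50 nL into about 50 µL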
Beta apoptosis = blocks beta cell apoptosis | actives 0.8% (n = 300,000) | INS-1E cytokine-induced death, ATP luminescence, 48 h; percent of positive-control rescue, neutral wells zero | protection from apoptosis, % (concentration not given with the values);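 active = all replicates at 75% or more, or half of them and the mean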;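 also: 0% = cytokine-treated negative control wells and 100% = positive control rescue; higher means more ATP so stronger rescue from cytokine killing; wells of about 40 µL received 100 nL stock; the first replicate is given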
Ecoli rRNA inh OD600 = recorded beside Ecoli rRNA inh, whose call it bears; OD600 change, %; measured here: OD600 growth;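 optical density of the mix in the first replicate; 0 = DMSO median and -100 = no signal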
Ecoli rRNA inh RFP = also measured in Ecoli rRNA inh; calls as there; RFP signal change, %; measured here: RFP humanized mutant strains;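 first replicate; 0 = DMSO median and -100 = no signal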
* hit, by the source's call; i = inactive; / = no result given. This is a subset (hit frequency here may not be typical).

SMILES	UCH37 inh	Bfl-1 A1 inh	Ecoli rRNA inh	Ecoli rRNA inh OD600	Ecoli rRNA inh RFP	AF4-AF9 inh	FGF22 binding	Ecoli growth	T cruzi repl	Beta apoptosis
COc1ccc(CN(C(=O)CO/N=C/c2ccccc2)c2ccccc2C(=O)O)cc1	/	-0.1	1	2	2.1	-2.1	i	/	-7	-10
CCS(=O)(=O)c1ccc2oc(Nc3cccc(OC)c3)nc2c1	3.2	-0.4	-14	-16	-2.0	-3.7	i	0.68	1	7
COc1ccc(S(=O)(=O)Nc2ccc(Oc3ccsc3C(=O)O)cc2)cc1	0.2	1.3	7	8	-0.6	5.1	i	0.69	-7	-8
Cc1cccc(N(CC(=O)N2CCOCC2)S(C)(=O)=O)c1	2.4	1.0	/	/	/	/	/	0.68	-6	-4
CC(=O)Nc1ccc(O)c(-c2nc3ccccc3s2)c1	-13	-1.7	9	5	3.4	-1.4	i	0.72	-17	3
COc1ccccc1C(=O)Nc1ccnn1C1CCN(Cc2cnc(N(C)C)s2)CC1	1.2	-0.6	13	21	3.3	-0.1	i	0.69	56*	-4
CC(=O)NC12CC3CC(C1)CC(C(=O)N1CCN(S(=O)(=O)c4ccc([N+](=O)[O-])cc4)CC1)(C3)C2	1.7	/	-1	11	-5.6	0.9	i	0.71	/	/
CCOC(=O)Cn1c(=O)oc2cc(S(=O)(=O)Nc3ccc(N(CC)CC)cc3C)ccc21	3.1	0.1	-12	-17	2.5	8.9	i	0.72	-11	2
O=C(Nc1ccc(NC(=O)c2ccco2)cc1)c1ccco1	-2.3	0.9	4	6	2.6	1.7	i	0.69	-6	-15
CCN1CCN(CCNC(=O)c2ccc(/C=C3\Sc4ccccc4N(Cc4ccccc4F)C3=O)cc2)CC1	-13	-0.6	-56	-80	-30	21	i	0.63	60*	4
CCOC(=O)C(=O)/C(C#N)=C/Nc1ccccc1	4.6	0.4	/	/	/	/	/	0.76	9	-6
O=C(NCc1cccnc1)c1ccc(Cl)c(Cl)c1	3.9	-0.5	/	/	/	/	/	0.69	11	-2
CSc1ccccc1OCc1cc(C(=O)N(C)Cc2cc(C)[nH]n2)no1	0.0	0.0	-16	-23	-0.5	-0.7	i	0.67	8	-2
CSc1ccc(Cl)c(C(=O)OCC(=O)Nc2ccccc2OC(F)F)c1	-18	0.7	-25	-21	-13	-1.5	i	0.67	-26	-9
O=C(CCn1nc(-c2ccc(Cl)cc2)ccc1=O)N1CCN(c2ccccc2)CC1	2.4	0.5	-13	-21	-0.2	5.2	i	0.67	0	-2
O=C(CSc1nnnn1-c1cccc2ccccc12)NC(C(=O)O)(c1ccccc1)c1ccccc1	-8.6	0.7	-24	-32	0.6	-20	/	0.67	-13	-11
C/C=C/c1ccc(O)c(OC)c1	5.7	0.3	/	/	/	-6.0	i	0.72	/	0
Cc1ccc(Nc2nnc(SC(C)C(=O)NC3CC3)s2)cc1 (stereo not given)	4.2	1.8	-3	-8	-0.9	-1.3	i	0.68	/	0
O=C1NN(c2ccccc2)C(=O)C2C3C=CC(C4CC34)C12 (stereo not given)	2.1	1.0	8	6	2.7	-0.2	i	0.7	-11	-3
COc1ccc(NC(=O)CC2C(=O)N(c3cccc(OC)c3)C(=O)N2C(C)C)cc1 (stereo not given)	3.2	-0.3	6	6	-8.6	-4.9	i	0.79	-1	-6

Single records, as listed above. Order of values: UCH37 inh	Bfl-1 A1 inh	Ecoli rRNA inh	Ecoli rRNA inh OD600	Ecoli rRNA inh RFP	AF4-AF9 inh	FGF22 binding	Ecoli growth	T cruzi repl	Beta apoptosis
O=C(Nc1ccc(NC(=O)c2ccco2)cc1)c1ccco1 across the screens: -2.3	0.9	4	6	2.6	1.7	i	0.69	-6	-15
COc1ccc(S(=O)(=O)Nc2ccc(Oc3ccsc3C(=O)O)cc2)cc1 across the screens: 0.2	1.3	7	8	-0.6	5.1	i	0.69	-7	-8

(list continues)
SMILES	UCH37 inh	Bfl-1 A1 inh	Ecoli rRNA inh	Ecoli rRNA inh OD600	Ecoli rRNA inh RFP	AF4-AF9 inh	FGF22 binding	Ecoli growth	T cruzi repl	Beta apoptosis
O=S(=O)(/N=C(/NC(=S)Nc1ccccc1)c1ccccc1)c1ccc(Cl)cc1	3.5	-0.8	-1	0	0.4	-4.2	i	0.68	7	-5
COc1cccc(N(CC(=O)N2CCCC2)S(C)(=O)=O)c1	2.9	-0.1	17	5	1.5	-1.4	i	0.7	0	/
CCN(CC)c1ccc(C2N(C(=O)N3CCOCC3)CCN2S(=O)(=O)c2ccc(C)cc2)cc1 (stereo not given)	6.0	0.8	/	/	/	/	/	0.7	6	0
CC(C)Oc1ccc(C2c3c(oc4ccccc4c3=O)C(=O)N2CCCN2CCOCC2)cc1 (stereo not given)	-1.0	0.6	/	/	/	/	/	0.71	-15	-7
CCCOc1ccccc1OCC(=O)Nc1cccc(S(=O)(=O)NC2=NCCC2)c1	1.6	/	-11	-16	-1.3	0.5	i	0.67	/	/
COc1ccccc1C(=O)CSc1n[nH]c(N)n1	-0.2	-0.5	/	/	/	/	/	0.72	5	-8
O=C(O)/C(=C\c1cccc(C(F)(F)F)c1)c1ccc(S(=O)(=O)N2CCCC2)s1	3.8	-0.7	3	-22	-7.0	-1.1	i	0.66	/	-4
CCOc1ccc(C2CC(c3cccc(Cl)c3)n3nc(N)nc3N2)cc1 (stereo not given)	2.9	0.1	-2	13	3.9	1.4	i	0.72	20	14
COc1ccccc1CNS(=O)(=O)c1ccc2c(c1)CCCN2C(C)=O	0.1	0.2	6	5	3.0	-3.0	i	0.64	5	-1
CCOC(=O)C1=C(C)NC(=O)NC1c1c(OC)ccc2ccccc12 (stereo not given)	1.3	-0.2	2	5	-0.6	0.2	i	0.7	-16	-5
FC(F)(F)c1cccc(NC(=S)NCCc2ccccn2)c1	3.9	0.9	/	/	/	/	/	0.73	7	-5
C=CCc1cccc2cc(C(=O)NNC(=O)CC#N)c(=O)oc12	-0.5	1.8	12	6	-11	2.0	i	0.68	-3	-5
Cc1ccnc(NCc2cc(C)ccc2O)c1	1.8	-1.7	6	9	1.2	-5.3	i	0.64	-17	1
O=C1Cc2ccccc2C(c2ccc(Cl)cc2Cl)N1 (stereo not given)	4.3	1.2	-5	-2	-4.1	-13	i	0.69	-15	2
COC(=O)CC1C(=O)NCCN1C(=S)NC(=O)CCc1ccccc1 (stereo not given)	2.0	1.0	4	1	-3.6	-2.5	i	0.7	10	-9
COc1ccc(CCN(C(=O)c2cccc(F)c2)C2CC(=O)N(c3ccccc3)C2=O)cc1 (stereo not given)	4.5	-0.7	/	/	/	/	/	0.7	-2	-4
COc1ccc2c(c1)cc(C(=O)N[C@@H](CCSC)C(=O)N1CCC[C@H]1C(=O)O)n2C	-94	0.2	4	7	-12	-2.4	i	0.68	-19	-7
COc1cc(C)ccc1OCCOc1ccccc1Cl	/	0.4	/	/	/	/	/	0.69	14	-3
CCc1ccc(C2=NN(CCC(=O)NC(C)CCc3ccccc3)C(=O)CC2)cc1 (stereo not given)	2.6	0.0	-3	-12	2.2	2.5	i	0.68	32	-2
CC(C)CN(C(=O)COC(=O)c1ccc(Cl)c(N)c1)c1c(N)n(Cc2ccccc2)c(=O)[nH]c1=O	-13	0.4	2	15	-1.5	2.0	i	0.65	10	-3

SMILES	UCH37 inh	Bfl-1 A1 inh	Ecoli rRNA inh	Ecoli rRNA inh OD600	Ecoli rRNA inh RFP	AF4-AF9 inh	FGF22 binding	Ecoli growth	T cruzi repl	Beta apoptosis
Cc1nn(-c2ccccc2)c(C)c1Cc1ccc(O)cc1	4.3	1.0	-10	-15	0.3	-2.1	i	0.68	0	2
O=C(Nc1cc(=O)[nH]c2ncnn12)c1ccccc1	1.1	-4.9	/	/	/	/	/	0.7	-2	0
Cc1ccc(C2c3c(oc4ccccc4c3=O)C(=O)N2c2nncs2)cc1 (stereo not given)	-0.5	-0.3	-3	-2	-5.0	-16	/	0.64	-5	-3
COc1ccccc1N1CCN(Cc2ccc(O)c3ncccc23)CC1	1.1	0.4	/	/	/	/	/	0.58	46	139*
Cc1noc(C)c1CSc1nc2sc3c(c2c(=O)n1C)CCCC3	2.3	-0.3	/	/	/	/	/	0.7	19	-21
Nn1c(SCC(=O)Nc2ccccc2)nnc1C1CCCCC1	3.3	-0.5	6	4	-2.0	-2.5	i	0.61	-4	/
CC(=O)N1c2ccc(S(=O)(=O)N(C)C3CCCCC3)cc2CC1C (stereo not given)	1.5	-0.3	-26	-22	3.1	0.2	i	0.68	2	2
COc1ccc(N2CCN(C(=O)C(=O)c3cn(CC(=O)N4CCOCC4)c4ccccc34)CC2)cc1	3.3	-0.2	5	-11	5.2	-3.8	i	0.71	-4	-2
COc1cc(C)c(Br)cc1S(=O)(=O)N1CCOCC1	8.5	0.4	/	/	/	/	/	0.71	-1	-2
COCCCNc1ncnc2c1cnn2-c1ccc(C)cc1C	2.3	-0.5	/	/	/	/	/	0.7	-1	0
CC(=O)N1CCN(Cc2nc3ccc(Cl)cc3n2CCO)CC1	-0.9	-0.7	2	2	-1.1	1.3	i	0.62	-1	-5
COc1cc(OC)c2c(-c3cccc(-c4sccc4C(C)=O)c3)cc(=O)oc2c1	-12	/	-3	2	0.2	1.9	i	0.73	/	/
NS(=O)(=O)c1ccc(CCNC(=O)c2ccc(NC3=NC4CS(=O)(=O)CC4S3)cc2)cc1 (stereo not given)	0.9	0.1	/	/	/	/	/	0.69	-7	-2
O=C(c1ccc(F)cc1)N1CCN2C(=O)c3ccccc3C12c1ccccc1 (stereo not given)	3.5	0.7	0	8	0.5	3.2	i	0.65	-3	-1
O=C(CCCc1nc2ccccc2s1)NCc1ccccc1F	1.4	-1.1	-9	-13	-2.2	-3.2	i	0.67	20	1
CCOCC(=O)Nc1ccc(S(=O)(=O)NCCc2ccccc2)cc1	2.8	-0.2	/	/	/	/	/	0.73	-5	4
Cc1ccc(S(=O)(=O)NNC2=NS(=O)(=O)c3ccccc32)c(C)c1	3.7	-0.6	7	2	5.1	-2.9	/	0.72	-13	-1
c1nc2n(n1)C1=C(CCCC1)C1(CCCCC1)N2	/	-0.1	10	-2	2.9	1.5	i	/	5	-7

A second format for five compounds above.
Under each structure – UCH37 inh, Bfl-1 A1 inh, Ecoli rRNA inh, Ecoli rRNA inh OD600, Ecoli rRNA inh RFP, AF4-AF9 inh, FGF22 binding, Ecoli growth, T cruzi repl, Beta apoptosis
> COc1cc(OC)c2c(-c3cccc(-c4sccc4C(C)=O)c3)cc(=O)oc2c1
 : -12, /, -3, 2, 0.2, 1.9, i, 0.73, /, /
> NS(=O)(=O)c1ccc(CCNC(=O)c2ccc(NC3=NC4CS(=O)(=O)CC4S3)cc2)cc1 (stereo not given)
 : 0.9, 0.1, /, /, /, /, /, 0.69, -7, -2
> O=C(c1ccc(F)cc1)N1CCN2C(=O)c3ccccc3C12c1ccccc1 (stereo not given)
 : 3.5, 0.7, 0, 8, 0.5, 3.2, i, 0.65, -3, -1
> O=C(CCCc1nc2ccccc2s1)NCc1ccccc1F
 : 1.4, -1.1, -9, -13, -2.2, -3.2, i, 0.67, 20, 1
> CCOCC(=O)Nc1ccc(S(=O)(=O)NCCc2ccccc2)cc1
 : 2.8, -0.2, /, /, /, /, /, 0.73, -5, 4
